gsp antagonist = qHTS for Antagonists of gsp, the Etiologic Mutation Responsible for Fibrous Dysplasia/McCune-Albright Syndrome: qHTS. gsp-mutant cells, cAMP HTRF, 30 min; control for the full effect not named in the record. Potency, µM (top dose mostly 76.9 µM), for inactives: at the highest dose activity change, negative = inhibition, usual class: inhibitors. 340,000 tested, 0.4% active; active = falling curve of any shape with a large fitted effect; inconclusive = falling curve, mostly with a smaller effect; inactive = flat or rising curve; cell line not stated here;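 further: intracellular cAMP measured with PDE inhibitor Ro 20-1724 present during compound exposure; potency means the concentration at half of the fitted maximal effect; on the % scale 0 is the no-effect control and ±100 the full control effect; nearly all actives have a fitted effect of over 65% in size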
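G418-selected cells were plated in DMEM/10% FBS for 16-24 h at 37C, then treated with compounds plus the PDE inhibitor […] (300 uM solution added) for 30 min at 37C. Intracellular cAMP was measured by HTRF after 30 min lysis at room temperature.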
ClpP mod = qHTS Assay for Activators of ClpP; ATP-dependent Clp protease proteolytic subunit (Bacillus subtilis (strain 168)), P80244; purified B. subtilis ClpP, FRET peptide cleavage, 20 min; Potency, µM (series often up to 57.5 µM), without a hit: top-dose activity change, negative = active; 340,000 tested, 1.9% active; AID 651965, 2013; active = well fitted falling curve with a large enough effect; inconclusive = small, poorly fitted or top-dose-only effect; inactive = no such curve, though single readings can be large or run the other way; further: potency means the concentration at half of the fitted maximal effect; the source files actives as falling curves though it sought activators and does not explain the sign; nearly all actives have a fitted effect of over 65% in size; many hits overshoot -100%
Target sequence (P80244 whole entry, looked up): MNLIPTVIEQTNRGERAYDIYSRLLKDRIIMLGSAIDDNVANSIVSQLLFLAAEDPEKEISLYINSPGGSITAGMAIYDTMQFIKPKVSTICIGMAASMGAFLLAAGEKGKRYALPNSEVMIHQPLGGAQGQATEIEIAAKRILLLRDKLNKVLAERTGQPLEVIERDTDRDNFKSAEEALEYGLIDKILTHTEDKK
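FRET quenching reversal measured ClpP activation: 10 microg/mL B. subtilis ClpP at pH 8 with the FRET-FV decapeptide, read at 430 nm after 320 nm excitation. The 20-min minus 0-min signal was scaled between DMSO/no-enzyme wells and ADEP (5.8 microM final).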
Sfp PPTase inh = qHTS Assay for Inhibitors of Bacillus subtilis Sfp phosphopantetheinyl transferase (PPTase) | 4'-phosphopantetheinyl transferase ffp (Bacillus subtilis), Q9F4F7 | Biochemical Sfp PPTase activity, qHTS | Potency, µM, for inactives: max response, negative = inhibition, actives largely listed as inhibitors | 310,000 tested, 3.5% active | AID 1490, 2009; active means well fitted inhibition curve with a large enough effect; inconclusive means small, poorly fitted or top-dose-only effect, or another doubt; inactive means no such curve, though single readings can be large or run the other way;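 further: the enzyme is Sfp with the accession as filed and its product quenches rhodamine fluorescence; potency means the concentration at half of the fitted maximal effect; 0% = enzyme reaction without inhibitor and -100% = no enzyme wells; top concentration of the series not given in the record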
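Reaction rates are the 30-min fluorescence difference (ex 525, em 598 nm) in wells containing 15 nM Sfp, 5 uM rhodamine-CoA and 12.5 uM BHQ-2-YbbR at pH 7.6 with 10 mM MgCl2.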
gsp ag = qHTS for Agonist of gsp, the Etiologic Mutation Responsible for Fibrous Dysplasia/McCune-Albright Syndrome: qHTS; gsp mutant cells, cAMP HTRF, 30 min; control for the full effect not named in the record; Potency, µM (titrated, usually from 76.9 µM), for inactives: at the highest dose activation (cAMP increase), actives largely listed as activators; 340,000 tested, 0.13% active; AID 624287, 2012; active = well fitted activation curve with a large enough effect; inconclusive = small, poorly fitted or top-dose-only effect, or another doubt; inactive = no such curve, though single readings can be large or run the other way; cell line not stated here;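 further: phosphodiesterase inhibitor Ro 20-1724 added with compounds to block cAMP breakdown; potency means the concentration at half of the fitted maximal effect; nearly all actives have a fitted effect of over 60% in size; about a fifth of the inactives were tested at one dose only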
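Cells in DMEM/10% FBS with G418 were pretreated with compounds in DMSO plus […] (300 uM stock) for 30 min at 37C. cAMP was measured by HTRF (cAMP-d2 plus anti-cAMP antibody-K) after 30 min at room temperature.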
D2 PAM = Beta-Arrestin HTS for Positive Allosteric Modulators of the Human D2 Dopamine Receptor: Potentiators; potentiation, % (no concentration beside the values); DiscoveRx D2 beta-arrestin cells, luminescence, 90 min; 100% = 57 uM dopamine signal; D(2) dopamine receptor (Homo sapiens), P14416; 360,000 tested, 0.23% active; active = potentiation of 50% or more; inconclusive = 30% to 50%; inactive = 30% or less;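 further: compound concentration not given in the record; tested on top of an EC20 dose of dopamine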
Target sequence (P14416 whole entry, looked up): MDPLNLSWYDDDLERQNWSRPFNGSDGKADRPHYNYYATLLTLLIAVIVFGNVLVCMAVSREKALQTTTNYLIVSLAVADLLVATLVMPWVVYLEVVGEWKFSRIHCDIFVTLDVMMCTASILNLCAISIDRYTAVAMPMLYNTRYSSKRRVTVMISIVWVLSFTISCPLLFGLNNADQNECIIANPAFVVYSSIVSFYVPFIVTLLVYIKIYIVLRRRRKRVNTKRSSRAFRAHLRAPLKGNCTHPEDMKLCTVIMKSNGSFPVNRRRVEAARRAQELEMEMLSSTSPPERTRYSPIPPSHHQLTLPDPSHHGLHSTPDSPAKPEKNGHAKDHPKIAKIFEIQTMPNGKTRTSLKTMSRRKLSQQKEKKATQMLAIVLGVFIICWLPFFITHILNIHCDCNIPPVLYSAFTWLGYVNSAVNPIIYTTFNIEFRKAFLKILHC
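PathHunter D2 cells, attached overnight at 37 deg C, received compound in DMSO plus dopamine at EC20 (50 nM final) for 90 min at 37 deg C. Beta-arrestin recruitment was read as luminescence after 1 h with detection reagent at ambient temperature.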
TRPV1 potentiator = HTS Assay for Compounds that Act as Potentiators of the Vanilloid Receptor 1; Transient receptor potential cation channel subfamily V member 1 (Homo sapiens), Q8NER1; TRPV1-expressing cells, Fluo-8 calcium influx, capsaicin EC20 potentiation; host cell line not named in the record; control for the full effect not named in the record; potentiation, % at 8.33 µM; 320,000 tested, 0.02% active; AID 540277, 2011; active means potentiation above 80%; inconclusive means 30% to 80%; inactive means below 30%; further: 0% is about no effect
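TRPV1-expressing cells were cultured overnight at 35.5C and loaded with Fluo-8 calcium dye for 40 to 90 min at room temperature. After a 10 s baseline, compound was added and calcium influx was read kinetically for 3 min (ex 480/em 520 nm).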
Menin-MLL FL inh = qHTS Assay for Inhibitors Targeting the Menin-MLL Interaction in MLL Related Leukemias: Competition With Fluorescein Labeled MLL-derived Peptide; Fluorescence polarization, fluorescein-MLL peptide displacement from menin; FP activity change, % at 61.4 µM; 290,000 tested, under 10 active; AID 1766, 2009; inconclusive = falling polarisation curve, or a change in total fluorescence; inactive = total fluorescence flat and polarisation flat or rising; no compound was filed as active; the % refers to the polarisation; negative = inhibition;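 further: % of control where 0% means no effect; inhibitors lower the polarisation; unlabelled MLL peptide was the positive control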
Numbers without * were called inactive; ? = inconclusive; nt = not tested or not shown; & = joins results of further samples; [ ] = dose if it differs, or a comment. This is a random part of the collection; about 5.1% have a hit in one of these screens.

smiles,TRPV1 potentiator,Menin-MLL FL inh,D2 PAM,gsp antagonist,Sfp PPTase inh,ClpP mod,gsp ag
Cc1nnc(N/N=C/c2cc([N+](=O)[O-])c(N3CCC(C)CC3)cc2N2CCC(C)CC2)n1N,-6,0.2,20,-3%,?,-6.3%,-39%[inhibitor]
O=C(O)CN1C(=O)/C(=C\c2cc(Br)ccc2OCc2ccccc2Cl)SC1=S,12,7.7,-10,-4%,?,nt,-53%[inhibitor][15.4 µM]
COC(=O)C1=C(C)Nc2c(c(=O)n(C)c(=O)n2C)C1c1ccncc1 (stereo not given),-1,-3.5,-13,2%,-5%,-7.3%,-27%
C(=N\N1CCN(Cc2ccccc2)CC1)/c1cccnc1,-7,-1.4,-22,12%,6%,1.2%,?
O=C(OCCN1CCCC1=O)c1cncc(Br)c1,13,1.2,12,0%,15%,0.5%,-42%[inhibitor]
O=C(CSc1nnc(-c2ccccc2Cl)o1)Oc1ccc(Br)cc1,7,1.9,13,13%,-2%,-0.2%,-1%
Cc1cccc(N2CCN(C(=O)c3cc4n(n3)C(C(F)(F)F)CC(c3ccco3)N4)CC2)c1C (stereo not given),-8,3.1,17,-5%,2%,2.3%,-42%[inhibitor]
CCc1ccc(CN2CCC(C(=O)Nc3cccc(-c4nnc(C)s4)c3)CC2)o1,-7,nt,-17,1%,2%,?,7%
CCCCc1cc(=O)oc2cc(OCC(=O)N3CCC(C(=O)O)(c4ccccc4)CC3)ccc12,-2,-2.7,-19,-21%,5%,4.7%,nt
Cn1ccnc1C(=O)c1cc(=O)c2ccccc2o1,-3,-1.1,-1,6%,3%,1.0%,12%
O=C(CSc1nc2ccccc2c(=O)n1-c1ccccc1)NC(=O)CN1CCCC1=O,3,-2.5,7,-10%,26%,nt,-13%[15.4 µM]
O=C(O)CC1(CC(=O)Nc2ccccc2Br)CCCC1,nt,nt,-2,-17%,nt,nt,15%
Oc1cccc(C=NCc2ccccc2)c1,-1,-0.1,0,3%,26%,0.0%,14%
CN1[C@@H](CC(=O)c2ccccc2)CCC[C@H]1C[C@H](O)c1ccccc1,5&-5,nt,-30,7%,-8%&-10%&9%&29%,-1.4%&-0.5%,nt
C1CN(CC2COC(CN3CCOCC3)CO2)CCO1 (stereo not given),nt,nt,-2,4%,nt,nt,28%
CCN(C(=O)CN1CCN(c2ccccc2)CC1)c1c(N)n(Cc2ccccc2)c(=O)[nH]c1=O,16,3.5,-6,9%,-1%,0.3%,-50%[inhibitor]
Cc1ccc(C)c(N2CCN(C(=O)CCc3nc(-c4ccccc4Br)no3)CC2)c1,nt,nt,8,-27%,nt,-3.0%,nt
CC1(c2ccccc2)CC(C)(C)N2C(=O)C(=O)c3cccc1c32 (stereo not given),-18,-2.1,-12,6%,?,0.2%,0%[15.4 µM]
CCOC(=O)N1CCN(C(=O)c2cn(CC)c3ccc(S(=O)(=O)N4CCC(C)CC4)cc3c2=O)CC1,-35,-3.4,-2,-3%,-11%,nt,?
CCCN(CCC)S(=O)(=O)c1ccc(C(=O)OCCN2C(=O)c3cccc4c(N5CCOCC5)ccc(c34)C2=O)cc1,18,?,-6,1%,6%,22µM*,6%

The list goes on.
smiles,TRPV1 potentiator,Menin-MLL FL inh,D2 PAM,gsp antagonist,Sfp PPTase inh,ClpP mod,gsp ag
Cc1cc(C)c(NC(=O)CSc2nnc(-c3ccccn3)n2N)c(Cl)c1,-4,-1.6,-2,-4%,-25%,nt,7%
Cc1nc(C(=O)NCc2ccccc2)sc1C1(C)CC(c2ccccc2)=NO1 (stereo not given),-15,0.9,-14,-2%,10%,-0.2%,nt
O=C(CSc1cn(CC(=O)N2CCCCC2)c2ccccc12)NCC1CCCO1 (stereo not given),3,-1.5,-41,4%,14%,nt,-5%[15.4 µM]
CCOC(=O)C1CCN(c2cc(=O)n(C3CCCCC3)c(=O)[nH]2)CC1,-12,0.9,-9,-3%,2%,-0.6%,?
CC1S/C(=C(\C#N)C(=O)NCc2ccco2)N(Cc2ccco2)C1=O (stereo not given),-4,2.6,6,2%,?,-2.3%,25%
COc1ccc(CNc2cc(C)ccn2)c(O)c1,15,2.6,-5,-6%,-15%,nt,-37%[inhibitor]
CN1C(=O)C(c2ccccc2[N+](=O)[O-])C(=O)c2ccccc21 (stereo not given),7,-3.8,-42,8%,7%,-1.3%,?
C=CCn1cc(-c2cccc(Cl)c2)cc(C#N)c1=O,-7,4.9,-13,28%,18%,28µM*,-24%
COc1ccc2oc(C(=O)NCC3CCCO3)c(C)c2c1 (stereo not given),3,nt,-3,-1%,16%,?,-3%
CCOc1ccc(NC(=O)CCS(=O)(=O)c2ccc(C)cc2)cc1,-2,-6.2,-3,9%,7%,nt,-7%[15.4 µM]
CCn1cc(S(=O)(=O)c2ccc(OC)cc2)c(=O)c2cc(F)c(N3CCN(C)CC3)cc21,-3,-1.1,-25,-8%,9%,4.0%,?
NNC(=O)c1ccc(OCC2CC(c3ccc(Cl)cc3)=NO2)cc1 (stereo not given),-3,1.5,2,5%,19%,-3.2%,1%[15.4 µM]
O=C(NCc1cccnc1)c1ccc(N2CCOCC2)c([N+](=O)[O-])c1,-1,0.1,-5,0%,0%,-0.9%,21%
COc1cc2c(cc1OC)C[N+](C)(C)CC2,22,-7.1,-27,8%,?,-15%,nt
CC1CN(CC(O)c2ccc(Br)cc2)CCO1 (stereo not given),nt,nt,-1,4%,nt,nt,-4%
N#Cc1cccc(C#N)c1Oc1ccc(S(=O)(=O)Nc2ccc(Cl)cc2)cc1,3,0.2,-20,?,-6%,-5.0%,-1%
CC1(C)C(=O)Nc2ccccc2N1C(=O)COC(=O)CNS(=O)(=O)c1ccc(F)c(F)c1F,-4,nt,-24,-12%,nt,0.8%,?
CCOc1cc(-c2cc(-c3ccc(NC(C)=O)cc3)nc(N)c2C#N)ccc1O,-7,0.5,?,-10%,11%,3.6%,?
S=c1[nH]ncn1/N=C/c1ccco1,nt,nt,-15,nt,nt,1.2%,-11%
O=C(CN1CCN(S(=O)(=O)c2cccc(Cl)c2)CC1)N1CCCCC1,-2,nt,1,15%,nt,0.5%,?

Other records
smiles,TRPV1 potentiator,Menin-MLL FL inh,D2 PAM,gsp antagonist,Sfp PPTase inh,ClpP mod,gsp ag
Cn1c2c(c3ccccc31)CCN=C2c1ccccc1,nt,nt,-11,-2%,nt,-2.2%,17%
CC(C)(C)c1ccc(C(=O)NNC(=O)C(=O)N2CCCCC2)cc1,-18,0.3,0,15%,8%,-1.2%,10%
On1nnc2cc(C(F)(F)F)ccc21,-3,-3.6,-9,4%,22%,nt,-14%[15.4 µM]
COCCn1cnnc1SCC(=O)c1ccc(S(=O)(=O)N2CCCC2)cc1,-12,5.9,1,-12%,?,-6.9%,5%
CCOC(=O)C1=C(Nc2ccccc2)CSC1,nt,nt,3,nt,nt,-0.1%,-21%
Cc1nn(Cc2ccccc2)c2c1C(c1ccco1)C(C#N)=C(N)O2 (stereo not given),?,-0.7,18,-15%,-24%,-0.9%,10%
Cc1ccc(SCC(=O)NCCC2=CCCCC2)cc1,6,2.1,6,-18%,11%,-2.2%,?
Cc1cc(N2CCN(C)CC2)ccc1NC(=O)c1c2c(nc3ccccc13)CCN(Cc1ccccc1)C2,3,0.7,-21,-15%,5%,-1.0%,2%
CCOC(=O)C1=C(C)NC(=S)NC1c1cccs1 (stereo not given),-6,0.4,-9,6%,-2%,1.2%,-6%
CCN(CC)C(=O)[C@H]1C[C@H](CC(=O)NCc2ccco2)C(=O)N2CCc3c([nH]c4cc(-c5ccco5)ccc34)[C@]12C,nt,nt,-7,-29%,nt,3.5%,nt
CN(CC(=O)Nc1ccccc1Br)Cc1nc2ccccc2c(=O)[nH]1,2,1.7,8,-3%,-7%,?,-16%
O=C(CCC(=O)c1cccs1)OCC(=O)c1ccccc1F,-5,nt,-15,13%,nt,-3.5%,-1%
COc1cc2ccc(=O)oc2cc1OCC(O)C(C)(C)O (stereo not given),10,3.4,-3,-1%,0%,4.3%,10%
O=S(=O)(c1ccc(F)cc1)N1CCC(n2cnc3ccccc32)CC1,-6,nt,-2,17%,24%,0.4%,-6%[15.4 µM]
COc1ccc(OC)c(C2C(C(=O)Nc3ccc(F)cc3)=C(C)Nc3nc(CCCO)nn32)c1 (stereo not given),29,1.3,2,?,-10%,0.4%,-40%[inhibitor]
COc1ccccc1/C=C1\SC(=S)N(CCC(=O)NCCCn2ccnc2)C1=O,2,nt,-4,6%,2%,-1.4%,-36%[inhibitor]
COc1ccc(-c2nc3c4ccccc4ccn3c2C=O)cc1,15,-3.1,3,13%,16%,nt,-10%[15.4 µM]
